PINK1 expr mod: modulators of PINK1 expression | PINK1 immunofluorescence, high-content cytometry, 24 h | Potency, µM (titrated, usually from 76.6 µM), for inactives: at the top dose activation (PINK1 increase), actives largely listed as activators | actives 0.2% (n = 410,000) | AID 624263; active = well fitted activation curve with a large enough effect; inconclusive = small, poorly fitted or top-dose-only effect; inactive = flat fitted curve, though single readings scatter; cell line not stated here;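 further: potency means the concentration at half of the fitted maximal effect; % of control where 0% means no effect; nearly all actives have a fitted effect of over 65% in size; a mitochondrial uncoupler was the plate control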
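Stable cell line treated 24 h with compounds at 5 concentrations (CCCP controls), then fixed and immunostained for PINK1 plus nuclear and cell stains; PINK1 immunofluorescence quantified by laser-scanning microplate cytometry.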
CtBP-E1A blk: blocks the CtBP interaction with E1A. actives 0.49% (n = 340,000). activity change, % (test concentration not listed). AlphaScreen GST-E1A/His-CtBP binding, 1536-well; active compounds read low; control for the full effect not named in the record; in the data active means activity change below about -65%; inconclusive means about -30% to -65%; inactive means above about -30%; further: on the % scale 0 is the no-effect control and ±100 the full control effect
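In 5 uL wells, 23 nL compound meets equimolar GST-E1A and His-CtBP (5X stock 125 nM each) for 2 h, 37 °C. Beads (5X, 50 ug/mL) then 1 h, 37 °C, dark.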
Six1-Eya2 blk: blocks human Six1 binding to Eya2; Q15475+O00167; AlphaScreen GST-Six1/His-Eya2 binding, biochemical; active compounds read low; control for the full effect not named in the record; activity change, % (test concentration not listed); actives 0.56% (n = 360,000); AID 651725; in the data active = activity change below about -65%; inconclusive = about -30% to -65%; inactive = above about -30%; further: on the % scale 0 is the no-effect control and ±100 the full control effect
Target sequence (O00167 whole entry, looked up): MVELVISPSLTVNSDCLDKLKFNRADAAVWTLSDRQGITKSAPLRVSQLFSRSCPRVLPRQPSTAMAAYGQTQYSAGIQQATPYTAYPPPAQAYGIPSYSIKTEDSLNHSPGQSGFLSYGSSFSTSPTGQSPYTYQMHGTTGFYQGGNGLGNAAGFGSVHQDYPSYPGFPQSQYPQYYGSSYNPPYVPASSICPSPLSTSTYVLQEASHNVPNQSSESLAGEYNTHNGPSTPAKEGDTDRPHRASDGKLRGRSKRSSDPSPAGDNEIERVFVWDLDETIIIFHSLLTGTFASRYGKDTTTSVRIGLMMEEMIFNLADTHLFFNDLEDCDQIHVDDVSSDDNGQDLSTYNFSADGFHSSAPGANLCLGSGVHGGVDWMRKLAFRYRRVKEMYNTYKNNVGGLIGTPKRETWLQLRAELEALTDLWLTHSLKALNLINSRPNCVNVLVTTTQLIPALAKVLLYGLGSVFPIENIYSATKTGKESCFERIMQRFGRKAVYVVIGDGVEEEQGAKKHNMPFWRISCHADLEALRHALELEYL
Target sequence (Q15475 whole entry, looked up): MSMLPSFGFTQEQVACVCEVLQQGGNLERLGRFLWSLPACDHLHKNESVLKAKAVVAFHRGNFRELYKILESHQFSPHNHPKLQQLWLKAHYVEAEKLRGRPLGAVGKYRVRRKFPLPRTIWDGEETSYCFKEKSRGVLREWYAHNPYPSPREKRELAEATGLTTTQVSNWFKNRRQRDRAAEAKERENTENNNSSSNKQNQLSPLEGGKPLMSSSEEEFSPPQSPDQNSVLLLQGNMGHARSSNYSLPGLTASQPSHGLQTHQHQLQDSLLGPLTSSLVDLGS
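Compounds are tested against tagged Six1 and Eya2 proteins bridged by glutathione donor and nickel acceptor beads; after a one-hour incubation at 37 °C without light, AlphaScreen emission is recorded.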
Sfp inh: inhibitors of Bacillus subtilis Sfp phosphopantetheinyl transferase; Q9F4F7; Biochemical Sfp PPTase activity, qHTS; Potency, µM, for inactives: max response, negative = inhibition, hits mostly inhibitors; actives 3.5% (n = 310,000); AID 1490; active means well fitted inhibition curve with a large enough effect; inconclusive means small, poorly fitted or top-dose-only effect, or another doubt; inactive means no such curve, though single readings can be large or run the other way;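 further: the enzyme is Sfp with the accession as filed and its product quenches rhodamine fluorescence; potency means the concentration at half of the fitted maximal effect; 0% = enzyme reaction without inhibitor and -100% = no enzyme wells; top concentration of the series not given in the record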
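Fluorescence-quenching assay: 15 nM Sfp-PPTase preincubated 15 min at room temperature with compound, then 5 uM rhodamine-CoA and 12.5 uM BHQ-2-labelled YbbR peptide added. Fluorescence (ex 525/em 598 nm) read at start and after 30 min; difference gives rate.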
TRPV1 PAM: human TRPV1 potentiation; Q8NER1; TRPV1-expressing cells, Fluo-8 calcium influx, capsaicin EC20 potentiation; host cell line not named in the record; control for the full effect not named in the record; potentiation, % at 8.33 µM; actives 0.02% (n = 320,000); AID 540277; active means potentiation above 80%; inconclusive means 30% to 80%; inactive means below 30%; further: 0% is about no effect
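Fluo-8 calcium influx in TRPV1-expressing cells, kinetic read (ex 480/em 520 nm). Compound added and read 3 min for agonist activity, followed by capsaicin at EC20 final and 2 min further read for enhancement.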
D2 ag: agonists of human D2 dopamine receptor (beta-arrestin). AID 624465. actives 0.084% (n = 360,000). DiscoveRx PathHunter D2 beta-arrestin, luminescence, 90 min; 100% = 57 uM dopamine signal. activation, % (test concentration not listed); in the data active = activation above about 40%; inconclusive = about 15% to 40%; inactive = below about 15%; further: compound concentration not given in the record; the text of the record calls up to 30% inactive
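Agonist mode: compounds alone added to overnight-plated D2 PathHunter cells for 90 min at 37 C, with 57 uM final dopamine (EC100) defining full response. Beta-arrestin recruitment detected by chemiluminescent reagent, read after 1 h at ambient temperature.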
D2 potentiator: positive allosteric modulators of human D2 dopamine receptor | P14416 | DiscoveRx D2 beta-arrestin cells, luminescence, 90 min; 100% = 57 uM dopamine signal | potentiation, % (test concentration not listed) | actives 0.23% (n = 360,000) | AID 624464; active = potentiation of 50% or more; inconclusive = 30% to 50%; inactive = 30% or less;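 further: compound concentration not given in the record; tested on top of an EC20 dose of dopamine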
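PathHunter D2 cells, attached overnight at 37 deg C, received compound in DMSO plus dopamine at EC20 (50 nM final) for 90 min at 37 deg C. Beta-arrestin recruitment was read as luminescence after 1 h with detection reagent at ambient temperature.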
The depositor's hits bear a star; ? = inconclusive; nt = not tested or not shown; [ ] = another dose, or the depositor's remark.

no.	smiles	D2 potentiator	PINK1 expr mod	Six1-Eya2 blk	TRPV1 PAM	D2 ag	CtBP-E1A blk	Sfp inh
1	Cc1ccc(NC(=S)N2CCN(C(=O)c3ccccc3)CC2)c(C)c1	-8	-1.1%	-2	3	2.4	nt	2%
2	CCN(CC)c1ccc(NC(=O)CN2CCN(CC(=O)Nc3ccc(F)cc3)CC2)cc1	-8	0.2%	-30	1	-9.8	-29	-12%
3	Cc1cccc(CCNC(=O)C2CCN(S(=O)(=O)N3CCOCC3)CC2)c1	-7	1.1%	7	7	0.6	nt	13%
4	COc1ccc(OC)c(/C=N/NC(=O)CCc2c(C)n[nH]c2C)c1	5	0.0%	1	-10	0.5	nt	11%
5	Cc1ccc(C)c(S(=O)(=O)N/N=C/c2ccc(C(=O)O)cc2)c1	-19	2.6%	7	9	-10	2	1%
6	CCN(CC)CCNc1ccc(Cl)cc1[N+](=O)[O-]	-42	-3.1%	?	nt	-4.1	-17	nt
7	CCOC(=O)COc1c(-c2ccc(OC)cc2)oc2ccccc2c1=O	18	1.0%	8	-11	-4.6	10	?
8	COC(=O)C1=C(CSc2nnnn2C)NC(=O)NC1c1cc(C)ccc1C (centres undefined)	2	16%	-17	6	-3.6	0	8%
9	O=C(O)COc1ccc(Nc2ccccc2)cc1	2	-1.4%	8	11	1.0	-20	-7%
10	S=c1[nH]nc(Cn2nnc3ccccc32)n1-c1ccc(Cl)cc1	-11	2.5%	4	-2	-6.9	-6	-10%
11	O=C(COc1ccccc1)Nc1sc2c(c1C(=O)NCc1cccnc1)CCCC2	-3	nt	-1	3	5.7	11	-25%
12	Cc1ccc(C)c(S(=O)(=O)N2CCN(C(=O)[C@H](Cc3ccccc3)NC(=O)c3ccco3)CC2)c1	-3	-1.3%	7	nt	-3.7	3	nt
13	COc1cccc2c(=O)n(CC(=O)Nc3ccc(F)cc3F)ccc12	-4	-0.1%	3	-6	-2.7	3	11%
14	Cc1ccc2nc(C(C)(C)C)c(Cc3cccc(Cl)c3)n2c1	-10	?	-5	nt	-4.8	0	nt
15	CN(CC(=O)Nc1cccc(F)c1)C(=O)c1ccc2c(c1)NC(=O)CS2	-4	-0.9%	-4	10	-6.5	-4	nt
16	CCOc1ccc(NC(=O)C(=O)N/N=C/c2ccccc2F)cc1	-6	8.8%	-4	-4	0.4	nt	-8%
17	Cc1cc(C)cc(NC(=S)NC2CC3CCCC(C2)N3CC(C)C)c1 (centres undefined)	-9	0.2%	-2	12	1.8	3	5%
18	N#CCO/N=C/C(=O)Nc1ccc(F)cc1F	-3	-0.1%	4	8	-3.6	3	12%
19	O=C(Nc1ccc(-c2nc3cccnc3s2)cc1)c1cccnc1Cl	9	1.6%	-27	4	4.8	-23	7%
20	CN(CC(=O)Nc1ccccc1Br)C(=O)CN(C)C1CCCCC1	-4	0.2%	-1	3	1.5	-2	nt

Arranged by value in D2 ag (largest number first): 3 from the list above
item	SMILES	D2 potentiator	PINK1 expr mod	Six1-Eya2 blk	D2 ag	CtBP-E1A blk	Sfp inh
16	CCOc1ccc(NC(=O)C(=O)N/N=C/c2ccccc2F)cc1	-6	8.8%	-4	0.4	nt	-8%
13	COc1cccc2c(=O)n(CC(=O)Nc3ccc(F)cc3F)ccc12	-4	-0.1%	3	-2.7	3	11%
18	N#CCO/N=C/C(=O)Nc1ccc(F)cc1F	-3	-0.1%	4	-3.6	3	12%

The listing continues:
no.	smiles	D2 potentiator	PINK1 expr mod	Six1-Eya2 blk	TRPV1 PAM	D2 ag	CtBP-E1A blk	Sfp inh
21	COCCCN1CN(Cc2ccco2)CNC1=S	-3	2.0%	-4	5	0.5	7	10%
22	COc1cc(OC)c(OC)cc1/C=N/NC(=O)c1cc(-c2cccn2C)n[nH]1	2	nt	-2	24	-2.3	2	?
23	CC1(NC(=O)CC(c2ccccc2)(c2ccccc2)c2ccccc2)CCN(CCCc2ccccc2)C1=O (centres undefined)	-7	5.5%	-15	1	-3.8	-5	nt
24	Cc1ccc(C)c(SCC(=O)OCC(=O)Nc2ccc(S(=O)(=O)N3CCOCC3)cc2)c1	-6	2.7%[38.3 µM]	-1	-2	-0.7	4	6%
25	CCOC(=O)c1c(C)[nH]c(C(=O)COC(=O)c2ccco2)c1C	-19	-1.1%	-1	nt	-0.8	7	nt
26	CCC(C)(C)NC(=O)C(c1ccccc1F)N(Cc1ccco1)C(=O)c1csnn1 (centres undefined)	-7	-3.0%[38.3 µM]	-1	-11	-4.9	-5	15%
27	Cc1c(NC(=O)c2c(O)c3ccccc3n(C)c2=O)c(=O)n(-c2ccccc2)n1C	8	1.7%	2	-2	3.1	0	22%
28	c1ccc2c(c1)nc(N1CCCCCC1)c1nncn12	-29	-0.4%	9	nt	-2.6	-6	nt
29	Cc1oc(-c2ccccc2)cc1C(=O)Nc1ccc2ccccc2c1	-22	15%	-1	0	-2.9	?	89µM*
30	CCOc1ccc(NC(=O)NNC(=O)c2cc3ccccc3cc2O)cc1	-6	-0.1%	-6	3	-2.9	-8	21%
31	N#Cc1c(N)oc(-c2ccccc2)c1-c1ccccc1	-23	-0.8%	-5	7	-3.6	1	7%
32	Nc1nnc(CCS(=O)(=O)c2ccc(Br)cc2)s1	12	1.4%	0	-11	-0.6	nt	-1%
33	Cc1cc(C)c(-c2c(O)c3cnn(-c4ccccc4)c3[nH]c2=O)c(C)c1	-11	1.6%	5	4	-2.1	0	4%
34	COc1cc(NC(=O)CNc2ccc(Cl)c(S(=O)(=O)N3CCOCC3)c2)cc(OC)c1	-6	-0.8%	-11	5	3.2	-16	nt
35	O=C(Nc1ccnn1C1CCN(C(=O)c2cccc(Cl)c2)CC1)C1CC1	1	0.6%	2	-5	1.8	17	7%
36	O=C1CCCN1c1ccc(S(=O)(=O)NCCOc2ccccc2)cc1	9	-0.2%	9	?	-1.0	-2	5%
37	Cc1cc(OCC(=O)NNC(=O)c2cccc(F)c2)ccc1Cl	0	1.2%	-3	16	0.2	nt	nt
38	COC(=O)C1=C(C(=O)OC)SC2(S1)C(C(=O)OC)=C(C(=O)OC)SC1=C2c2cc(C)cc(C)c2NC1(C)C	-24	-1.2%	-18	-10	-7.2	-10	9%
39	COc1ccc(CC(NC(C)=O)C(=O)NC2CCN(C(=O)c3ccc([N+](=O)[O-])cc3)CC2)cc1OC (centres undefined)	-3	0.2%	4	7	4.7	3	6%
40	Cn1nnnc1SCCNS(=O)(=O)c1ccccc1	-12	0.7%	2	2	1.0	-3	9%
41	CCn1cc(C(=O)NP(=O)(Nc2ccc(C)cc2)Nc2ccc(C)cc2)c2ccccc21	-12	0.4%	11	-4	-3.0	2	12%
42	COCCCn1c(=O)/c(=C\c2ccccc2OC(C)C)s/c1=C(/C#N)C(=O)Nc1ccc(C(=O)O)cc1	10	-0.4%	1	8	-0.5	-4	-25%
43	CCOc1ccc2nc(SCc3ccc(OC)cc3)sc2c1	-1	1.7%	98	-8	1.7	81	-25%
44	Cc1ccc(-c2nc3cc(NS(=O)(=O)c4ccc(C)cc4)ccc3o2)cc1	4	5.7%[38.3 µM]	-4	10	-0.8	11	-15%
45	CC(=O)Nc1ccc(NS(=O)(=O)c2ccccc2)cc1	-10	2.0%	11	2	4.0	1	3%
46	COc1ccc(NC(=O)Nc2cccc3c2O[C@H](CN(C)C(=O)NC2CCCCC2)[C@@H](C)CN([C@H](C)CO)C3=O)cc1	-5	1.5%	-5	nt	1.5	4	nt
47	CN(C)S(=O)(=O)c1cc(NC(=O)COC(=O)CCc2ccccc2)ccc1Cl	-1	2.8%	-2	7	1.3	-1	25%
48	Cc1ccc(-c2cc(C(F)(F)F)n3nc(C(=O)Nc4ccon4)cc3n2)cc1C	3	13%	4	2	4.9	0	19%
49	O=C(Nc1ccc(Cl)cc1)OCc1cc(-c2ccccc2)on1	-11	1.7%	3	-6	-2.7	4	1%
50	O=C1c2ccc(Oc3ccc([N+](=O)[O-])cc3)cc2C(=O)N1c1ccncc1	-6	-0.4%	-2	-8	2.5	8	-20%
51	CCOC(=O)Nc1ccc2c(CN3CCC(C(=O)OC)CC3)cc(=O)oc2c1	-3	6.8%	1	14	1.3	nt	8%
52	CCOC(=O)NC(=O)CSc1nnc(C)s1	4	nt	-5	-1	-1.9	-7	1%
53	COCC(=O)NC1CCN(S(=O)(=O)c2cccc(C(C)=O)c2)CC1	2	0.7%	-4	0	1.7	6	4%
54	Nc1c(-c2ccc(Cl)cc2)cnn1C1CCS(=O)(=O)C1 (centres undefined)	-6	-2.3%	10	-3	-1.4	11	18%
55	Cc1cccc(NC(=O)c2ccc(N3C(=O)C4CCCCC4C3=O)cc2)c1C (centres undefined)	-1	2.2%	1	18	15	0	8%
56	CC(C)(CC(=O)O)CC(=O)N1CCCN(c2nccc(C(F)(F)F)n2)CC1	-2	1.4%	-23	15	-1.5	1	7%
57	COc1ccc(-c2cc3nc(C)c(C)c(N4CCN(C(=O)c5ccoc5)CC4)n3n2)cc1	nt	1.2%	-1	nt	-1.9	-23	nt
58	Cc1ccc(OCC(=O)N/N=C/C=C/c2ccco2)cc1	22	-2.3%	-17	10	-0.1	-1	35µM*
59	COc1ccc(S(=O)(=O)NCC(=O)Nc2cccc(C)c2C)cc1OC	-9	-1.7%	-2	?	-2.5	nt	-12%
60	O=C(Cn1nc(C(=O)O)c2ccccc2c1=O)Nc1cc(S(=O)(=O)N2CCCCC2)ccc1Cl	1	0.8%	-7	nt	-0.2	-10	nt
61	NC(=O)C1Cc2ccccc2CN1S(=O)(=O)c1cccs1 (centres undefined)	-1	-1.0%	3	4	-1.1	9	25%
62	C=C(C)Cn1c(C)cc(C)c(S(=O)(=O)c2cccc(C)c2)c1=O	-2	-0.1%	-9	-10	1.2	-13	-10%

Screening results: PubChem, National Center for Advancing Translational Sciences (NCATS)
